Bead autofluor = counter-screen for toxin protease inhibitors: compound fluorescence | compound autofluorescence counterscreen, microsphere flow cytometry; hits give high values | fluorescence intensity (no concentration beside the values) | 360,000 tested, 3.1% active;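 active = at least 3 SD above the mean of all compounds, about 16000 in these data; inconclusive = too few beads counted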;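 note: 100 nL of 1 mM stock went into each well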
ugtP null kill = growth inhibition of ugtP-null S. aureus, primary screen, RN4220 ugtP deletion, OD600; 16 h; some inactives read as strong as hits; growth inhibition, % (concentration not given with the values); 330,000 tested, 0.54% active; AID 1259309, 2017;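 active = z-score under -3 and OD600 up to 0.15 on both plates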;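 note: plate controls were untreated wells for no effect and antibiotic for full effect; wells of about 80 µL received 100 nL stock; the first replicate is given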
BJeLR lethal = MLPCN primary cell-based screen for lethality selective to Ras in HRASV12 cells; AID 1554, 2009; BJeLR (HRASV12) viability, CellTiter-Glo ATP luminescence, 48 h; reference of the scale not given here; 300,000 tested, 0.17% active; inhibition, % (test concentration not listed);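 active = replicate mean above 50%; inconclusive = above 50% but judged a plate artefact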;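 note: 50 nL library stock added to about 25 µL; numbers are from one replicate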
Mtb hypoxia inh = PubChem AID 1159583; fluorescence inhibition, % (no concentration beside the values); M. tuberculosis hypoxia-regulated fluorescent reporter, fluorescence; 300,000 tested, 0.1% active;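 active = 35 to 45% if threefold the growth effect, above 45% if 1.5-fold the growth effect; inactive = the rest, general growth blockers included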;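 note: wells of about 50 µL received 100 nL stock; 0% = vehicle wells and 100% = reference inhibitor wells; whole bacteria with a GFP reporter of the hypoxia response; strong numbers were not always called active; many hits fall short of the cut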
PrP 5UTR inh = inhibition of PrP 5' UTR reporter expression | 340,000 tested, 0.35% active | inhibition, % (test concentration not listed) | cell-based PrP 5' UTR mRNA reporter, plate reader;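 active = every replicate at 50% or more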;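 note: 0 = median of the neutral control wells; tested in H4 reporter cells; numbers are from one replicate; inactives centre near -14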
Sa RN4220 lethal = growth inhibition of S. aureus RN4220, primary screen, OD600; 330,000 tested, 0.33% active; inhibition, % (concentration not given with the values); 16 h;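 active = z-score of -3 or lower and OD600 up to 0.18 on both plates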;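 note: plate controls were untreated cells for no effect and reference antibiotic for full effect; stock transfer was 100 nL into about 80 µL; one replicate is shown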
Mtb hypoxia inh growth = recorded beside Mtb hypoxia inh, whose call it bears; growth inhibition, %; measured here: M. tuberculosis growth (absorbance);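 0% = vehicle and 100% = reference antibiotic; read after six days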
The depositor's hits bear a star; ? = inconclusive; . = no result given.

SMILES	Bead autofluor	ugtP null kill	BJeLR lethal	Mtb hypoxia inh	Mtb hypoxia inh growth	PrP 5UTR inh	Sa RN4220 lethal
NS(=O)(=O)c1cccc(NC(=O)CSc2nnc(-c3ccccc3F)n2C2CC2)c1	?	14	-6	13	14	6	2.6
Cc1noc(C)c1NC(=O)N(C)CC1Oc2c(NC(=O)Nc3ccccc3)cccc2C(=O)N(C(C)CO)CC1C (configuration not stated)	.	0	.	6	7	.	2.2
Cc1ccnc(NS(=O)(=O)c2ccc3c(c2)CCO3)c1	.	5	-3	6	6	.	2.7
COc1ccccc1NC(=O)C1=C(C)Nc2nnnn2C1c1ccccc1OC (configuration not stated)	2383	0	-3	.	.	-21	3.3
CCOc1ccc(OCC)c(NC(=O)C2CCN(S(=O)(=O)c3cccc4nonc34)CC2)c1	3983	6	-9	.	.	-9	3.4
CCOc1ccccc1N1CCN(C(=O)CC(C)C)CC1	7411	12	-1	14	13	-19	4.2
CCOC(=O)N/N=C/c1cccnc1	3475	.	2	.	.	-18	.
COc1ccc(CCNC(=O)CSc2ccc3nnc(CCNC(=O)c4ccccc4)n3n2)cc1OC	6252	6	1	12	0	-14	4.8
O=[N+]([O-])c1ccc(-n2cccn2)c(-c2nn[nH]n2)c1	7750	2	0	16	8	-45	3.8
CC(=O)NN1C(=O)c2ccccc2NC1c1ccc([N+](=O)[O-])o1 (configuration not stated)	4268	3	-2	0	2	61*	18
COc1ccc(S(=O)(=O)N(C)CC(=O)NCc2cccnc2)cc1OC	4318	14	4	8	-2	-10	3.9
Cc1cc(C(F)(F)F)nn1CC(=O)N1CCCCC1C (configuration not stated)	3193	-5	0	8	11	-19	-8.8
COc1cccc(NC(=S)N(CCC(C)C)C2CCN(C(C)=O)CC2)c1	2930	6	2	13	-4	-26	2.1
Cc1ccc(C=NNC(=O)Cn2nnc(N)n2)o1	.	7	.	3	10	.	4.8
O=C(CCC(=O)N(CC(=O)NC1CCCCC1)Cc1ccc(F)cc1)Nc1nccs1	3646	16	6	-3	5	0	1.1
CN(CCc1ccccn1)C(=O)c1ccc(OC2CCN(CCc3ccccc3)CC2)cc1	4135	6	10	-3	2	-10	1.8
N#Cc1ccc(COC(=O)c2cnc(Cl)c(Cl)c2)cc1	3459	3	8	7	-8	-20	3.7
Cc1nc2nc(Cc3ccccc3)nn2c(C)c1Cl	22300*	-3	2	5	8	-28	2.7
N#CCCn1cnc2c(=S)nc[nH]c21	5795	-3	-10	12	4	-21	8.0
Cc1cccn2c(CNCCSc3nccn3C)c(C(=O)N3CCCCC3)nc12	5517	4	1	-3	8	-9	2.1
O=S(=O)(c1ccc(Cl)cc1)N1CCCN(c2ccc(C(F)(F)F)cn2)CC1	6055	-24	2	0	13	-22	-3.6
O=C(COC(=O)c1cnccn1)Nc1ccccc1-c1ccccc1	2800	4	.	11	-6	-30	3.1
Cc1cc(C)cc(C(=O)NC(CC(N)=O)c2ccc(N3CCC(Cc4ccccc4)CC3)c([N+](=O)[O-])c2)c1 (configuration not stated)	3897	-2	6	7	10	-9	-13
CC(C)Oc1ccc(CCc2n[nH]c(=S)n2Cc2ccccc2)cc1	10206	68	3	6	-4	-8	5.9
O=C(Nc1ccccc1)N1CCN(c2ncccn2)CC1	3129	2	0	.	.	-16	0.2
Cc1ccc(N(C)C(=O)CC(C)S(=O)(=O)c2ccc3c(c2)NC(=O)CO3)cc1 (configuration not stated)	4589	12	-15	8	0	-16	4.0
NC(=O)C1=C[C@H](c2ccc(C(F)(F)F)cc2)C[C@H](OCCCCO)O1	4325	.	4	.	.	-2	.
N#Cc1c(-c2cccnc2)cc(-c2ccccc2)nc1N	5824	-5	2	1	8	.	4.0
COc1ccc(C(=O)Nc2ccc3c(c2)nc(CCNC(=O)c2ccco2)n3C)cc1	5980	-7	2	-1	-7	-16	4.4
Cc1c(NC2(c3nnnn3-c3ccc(Br)cc3)CCCCC2)c(=O)n(-c2ccccc2)n1C	3275	1	0	3	-4	-3	-3.0
COCCNc1nnc(SCC(=O)NC2CCCCC2)s1	9019	1	.	10	5	-16	4.9
CN(C)C1=NCC(Cc2ccccc2)N1CCCCc1ccccc1 (configuration not stated)	.	-4	.	-2	12	.	-2.2
O=C(NN=Cc1ccccc1C(=O)O)c1ccc(NS(=O)(=O)c2cccs2)cc1	3947	8	.	9	2	-6	19
O=C(C1CCCN(c2ncccn2)C1)N1CCc2ccccc21 (configuration not stated)	17813*	9	5	10	8	-3	5.1
O=C(Nc1cccc([N+](=O)[O-])c1)Nc1ccc(Cl)cn1	2254	-5	-4	6	-5	-31	4.3
NS(=O)(=O)c1ccc(CNC(=O)C2(c3ccc(Cl)cc3)CC2)cc1	3660	2	-8	18	4	-3	2.6
CCCN(CCC)CCCNC(=O)c1ccc2c(Cl)c3c(nc2c1)CCC3	3301	0	5	15	-2	-1	-4.4
COC(=O)[C@@]12CCCN1C(c1ccc(-c3ccc(Cl)c(Cl)c3)c(OC)c1)C1C(=O)N(C)C(=O)C12 (some centres not stated)	.	20	.	-1	8	.	-4.1
CCc1[nH]nc(C(=O)N2CCCC(Nc3ccc(C(C)C)cc3)C2)c1C (configuration not stated)	6369	.	-11	.	.	-1	.
COc1ccc(CC(=O)N2CCN=C2SC)cc1	5620	-3	0	.	.	-5	-1.8
COC(CNC(=O)CSCc1nc(-c2ccc(SC)cc2)oc1C)OC	2599	4	0	8	11	-7	6.3
O=C(CCSCc1ccccc1Cl)NCc1ccco1	3175	-5	-4	-6	0	-4	0.7
CCNC(=O)/N=C1/NC(=O)C(C(C)C)O1 (configuration not stated)	9884	-1	0	4	12	-14	2.3
CC(C)c1ccc(C=NNC(=O)c2cccc(S(=O)(=O)N3CCOCC3)c2)cc1	.	1	.	-4	4	.	2.7
Cc1ccc(NC(=O)C(=O)c2c[nH]c3ccccc23)cc1	3308	7	8	13	-2	-73	-2.7
CCOc1ccc(NS(=O)(=O)c2ccc3c(c2)CCN3C(C)=O)cc1	3700	8	5	1	-6	13	-2.2
O=C(CN1C(=O)c2ccccc2S1(=O)=O)NCCc1ccc(F)cc1	3990	8	.	6	3	-24	5.0
CCOC(=O)c1c(C)[nH]c(C)c1S(=O)(=O)NCC1CCN(Cc2ccccc2OC)CC1	5822	-1	7	8	3	-11	1.7
CSc1ccc(/C=N/NC(=O)CN2CCN(Cc3ccc(Cl)cc3)CC2)cc1	2410	.	-18	.	.	-11	.
Cc1ccc([N+](=O)[O-])cc1S(=O)(=O)NCc1cccnc1	2603	0	2	6	2	-22	4.0

An excerpt from above, reduced to Bead autofluor, Mtb hypoxia inh growth and Sa RN4220 lethal.
| Molecule | Bead autofluor | Mtb hypoxia inh growth | Sa RN4220 lethal |
| --- | --- | --- | --- |
| NC(=O)C1=C[C@H](c2ccc(C(F)(F)F)cc2)C[C@H](OCCCCO)O1 | 4325 | . | . |
| Cc1ccc(NC(=O)C(=O)c2c[nH]c3ccccc23)cc1 | 3308 | -2 | -2.7 |
| CSc1ccc(/C=N/NC(=O)CN2CCN(Cc3ccc(Cl)cc3)CC2)cc1 | 2410 | . | . |

The list continues.
SMILES	Bead autofluor	ugtP null kill	BJeLR lethal	Mtb hypoxia inh	Mtb hypoxia inh growth	PrP 5UTR inh	Sa RN4220 lethal
N#Cc1ccc(CN2CCN(C(=O)CCNS(=O)(=O)c3ccc(F)c(F)c3)CC2)cc1	8350	3	.	5	0	-26	6.8
Cc1occc1-c1nnc(SCC(=O)NCCc2ccccc2)o1	2601	10	-3	3	7	-11	0.2
[O-][n+]1ccc(C(O)c2ccccc2)cc1 (configuration not stated)	3398	9	-9	-2	3	-22	3.0
NS(=O)(=O)c1cc(C(=O)OCC(=O)N2CCOCC2)ccc1Cl	5876	2	-8	3	1	-21	-0.3
O=C(CCCSc1ccccc1)Nc1nc(-c2ccccn2)cs1	2850	-4	-8	6	-5	-10	5.7
O=C(O)c1cccc(NC(=O)C2CC(=O)N(Cc3ccccc3)C2)c1 (configuration not stated)	2594	3	-11	11	7	6	3.5
Cc1cc(C)c(C)c(C(=O)C2OC(=O)C(C)(C)C(=O)C2(C)C)c1C (configuration not stated)	2422	1	-7	3	9	-37	3.1
NS(=O)(=O)c1ccc(NN=Cc2ccccc2Br)cc1	.	-4	.	14	9	.	7.5
CCc1ccc(NC(=O)N(CCN(C)C)C(C)c2cccnc2)cc1 (configuration not stated)	4884	5	-7	-2	-7	-16	1.4
OCCN(Cc1ccccc1)Cc1cccc(F)c1	20011*	-5	-1	11	6	-30	5.0
O=C(NC(Cc1ccccc1)C(=O)OCc1ccccc1)c1nc[nH]c1C(=O)NC(c1ccccc1)c1ccccc1 (configuration not stated)	.	-4	.	9	-6	.	0.3
O=C1C2CCCCN2C(=O)N1CCCCN1CCN(c2cccc(Br)c2)CC1 (configuration not stated)	3595	0	-3	4	1	-9	1.2
COC(=O)c1ccc(CSc2nc3ccc(S(N)(=O)=O)cc3[nH]2)cc1	5843	7	-11	13	11	-33	3.7
Cc1ccc(C=NOC(=O)c2nn(C)cc2Cl)cc1	.	5	.	7	2	.	8.3
O=C(CCCCCN1C(=O)c2ccccc2C1=O)NC1CCCC1	2471	-2	0	.	.	-37	1.8
Cc1ccc(NC(=O)CN(C)C(=O)Cc2ccc(Cl)cc2Cl)cc1	3247	-4	1	2	5	12	-3.3
COc1cccc(/C=C/C(=O)Nc2ccc(OC)nc2)c1	10679	.	4	.	.	-13	.
COc1ccc(C2C(C(=O)c3sc(C)nc3C)=C(O)C(=O)N2CCN(C)C)cc1OC (configuration not stated)	4552	-2	-4	.	.	-19	5.1
COc1ccc(NC(=O)c2nnn(Cc3cccc(F)c3)c2N)c(OC)c1	6279	11	-30	.	.	-14	4.4
CC1CC(=O)Nc2ccccc2S1(=O)=O (configuration not stated)	2449	-2	5	13	15	-6	-12
CC(C)COc1ccc(-c2nnc(-c3ccco3)o2)cc1	17184*	8	0	7	2	42	12
Cc1ccc2[nH]c(=O)c(-c3nc4cc(C)ccn4c3NCc3ccco3)cc2c1	2765	-6	-8	.	.	-15	1.2
Cc1cccc(OCC(=O)Nc2ccc(N3CCN(C(=O)c4ccco4)CC3)cc2)c1	11163	2	3	16	6	-26	7.2
CCC(C)NCCCCOc1ccc(Br)cc1 (configuration not stated)	2475	5	1	20	11	-22	3.8
CC1CC(C)(C)NC(=S)N1CC(=O)N(C)Cc1ccccc1 (configuration not stated)	2879	2	9	8	2	4	3.4

Two neighbouring records out of the list so far, quoted:
SMILES	Bead autofluor	ugtP null kill	BJeLR lethal	Mtb hypoxia inh	Mtb hypoxia inh growth	PrP 5UTR inh	Sa RN4220 lethal
N#Cc1ccc(CN2CCN(C(=O)CCNS(=O)(=O)c3ccc(F)c(F)c3)CC2)cc1	8350	3	.	5	0	-26	6.8
Cc1occc1-c1nnc(SCC(=O)NCCc2ccccc2)o1	2601	10	-3	3	7	-11	0.2

(list continues)
SMILES	Bead autofluor	ugtP null kill	BJeLR lethal	Mtb hypoxia inh	Mtb hypoxia inh growth	PrP 5UTR inh	Sa RN4220 lethal
Cc1ccc(NC(=O)CN(C)C(=O)COC(=O)/C=C/c2cccs2)cc1	?	0	3	2	1	-12	2.4
CCN(CC(=O)Nc1cccc(OC)c1)C(=O)C1CCN(C(=O)Nc2ccccc2)CC1	3801	8	5	16	15	-27	1.4
Cc1cc(C)c(NC(=O)Cn2c(=O)n(-c3ccc(CC(=O)NCC4CCCO4)cc3)c(=O)c3ccccc32)c(C)c1 (configuration not stated)	3540	.	11	.	.	-31	.
O=C(c1cscn1)N1CCCC(N2CCN(c3ccc(F)cc3)CC2)C1 (configuration not stated)	5655	3	-1	3	3	-41	0.6
O=C(Cc1cccs1)NN=C/C(Br)=C/c1ccccc1	.	-8	.	1	0	.	8.7
CCn1c(SCC(=O)c2c[nH]c3ccccc23)nnc1-c1cccs1	.	0	11	3	7	-29	17
COc1ccc(Cc2nnc(Nc3ccc(C)cc3)o2)cc1OC	3187	2	-1	8	11	-16	4.6
O=C(Cn1c(NCCCO)nc2ccccc21)c1ccc([N+](=O)[O-])cc1	3938	0	-3	7	11	-11	8.5
CCc1cccc(NC(=O)Cn2c(=O)oc3cc(S(=O)(=O)N4CCOCC4)ccc32)c1	5263	-13	0	-5	5	-29	-1.2

Screening data deposited in PubChem BioAssay by several laboratories.
